Bioassay records: PubChem BioAssay, Center for Chemical Genomics, University of Michigan
CDC25B-CDK2 inh = human CDC25B-CDK2/CyclinA binding inhibition; HTRF CDC25B-CDK2/CyclinA binding, anti-His/anti-Flag; hits give high values; z-score (no concentration beside the values); 94,000 compounds, 0.72% hits;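 also: score is relative to mean and SD of negative controls; strong numbers were not always called active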
HIV TAR-Tat = HIV-1 TAR-Tat binding disruption. z-score (test concentration not listed). HIV-1 TAR RNA, Tat peptide displacement FRET; hits give high values. 100,000 compounds, 0.6% hits. AID 1259389;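 also: score is relative to mean and SD of negative controls; some compounds called inactive have numbers as strong as hits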
Starred values were filed as active, the others as inactive; . = no result given.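 The calls were made as follows: active = z-score from 3 up in half or more of its runs; inactive = the rest.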 Hits appear at their usual frequency; 0.87% or so of the library scored in one or more.

SMILES	CDC25B-CDK2 inh	HIV TAR-Tat
O=C(c1ccc(CS(=O)c2ccc(Br)cc2)o1)N1CCN(c2ccccc2)CC1 (stereo not drawn)	-1.6	1.8
CN(C)c1ccc(-c2nc3n(n2)C(c2cccnc2)C2=C(CCCC2=O)N3)cc1 (stereo not drawn)	-0.79	2.9
CCCCc1nn2c(=O)cc(COc3ccc(NC(C)=O)cc3)nc2s1	-1.8	0.47
COc1ccc(Nc2c3c(nc4ncnn24)CCCC3)cc1Cl	.	0.7
COC(=O)c1c(C)n(S(C)(=O)=O)c2cc(C)c(NS(C)(=O)=O)cc12	-1.5	0.7
Cc1ccc(NS(=O)(=O)c2ccc3nc(-c4ccccc4)[nH]c3c2)cc1Cl	-1.9	.
CCOC(=O)c1cn[nH]c1S(=O)(=O)Nc1ccc(F)c(F)c1	.	-0.39
Cc1n[nH]c(C)c1N1C(=O)c2cccc3c(Br)ccc(c23)C1=O	-1.1	-0.47
COc1ccc(C2C(C(=O)Nc3ccccc3)=C(C)Nc3nc(CCCO)nn32)cc1 (stereo not drawn)	0.56	.
CCOC(=O)c1nnn2c1nc(N/N=C/c1ccc3c(c1)OCO3)c1ccccc12	-1.2	.
O=C(NCc1cccs1)c1ccc2nccnc2c1	-2.4	.
O=C1Cc2cc(S(=O)(=O)N3CCN(c4ccc(F)cc4)CC3)cc3c2N1CCC3	.	1.2
Cc1nc2nc(NCc3cc(F)cc(F)c3)[nH]n2c(=O)c1CCO	-1.1	0.6
Cc1nn(-c2nc3ccc(Br)cc3s2)c2c1C(c1cc(F)cc(F)c1)CC(=O)N2 (stereo not drawn)	.	1.2
O=C(O)CCSc1nc2ccccc2n1Cc1ccccc1	-3.7	-0.83
CC1=C(c2cccc(Br)c2)S(=O)(=O)N=C1Nc1cccc(C)c1C	-1.2	-0.06
COc1ccc(-c2nn3c(-c4ccncc4)nnc3s2)cc1	-1.2	0.01
CCOc1ccc2ncc(S(=O)(=O)c3ccccc3)c(N(CC)CC)c2c1	-0.31	-1.1
Cc1cccc(NC(=O)c2snnc2C)n1	0.01	-0.18
O=C1C=C(NC2Cc3ccccc3C2)CC(c2ccc(F)cc2)C1 (stereo not drawn)	-0.81	0.1
COc1cccc(C2C=C(C(=O)O)Nc3ncnn32)c1OC (stereo not drawn)	-0.09	-1.6
Nc1c(-c2nc(-c3ccc(F)cc3)cs2)c2ccccn2c1C(=O)c1ccc2c(c1)OCO2	-0.32	-0.42
Cc1ccc(S(=O)(=O)CCS(=O)(=O)c2cccs2)cc1	-1.4	.
CCOC(=O)c1sc(NC(=O)c2cc(C(C)C)on2)c(C(=O)OCC)c1C	0.86	.
COc1cc(C(=O)N2N=C(C)CC2(O)C(F)(F)F)cc(OC)c1OC (stereo not drawn)	-0.78	.

Taken from above:
Value of `CCCCc1nn2c(=O)cc(COc3ccc(NC(C)=O)cc3)nc2s1` under HIV TAR-Tat: 0.47
Value of `Cc1ccc(S(=O)(=O)CCS(=O)(=O)c2cccs2)cc1` under CDC25B-CDK2 inh: -1.4

Three compounds already listed, arranged by SMILES length, high to low.
SMILES	CDC25B-CDK2 inh	HIV TAR-Tat
Cc1n[nH]c(C)c1N1C(=O)c2cccc3c(Br)ccc(c23)C1=O	-1.1	-0.47
CCOC(=O)c1cn[nH]c1S(=O)(=O)Nc1ccc(F)c(F)c1	.	-0.39
Cc1ccc(S(=O)(=O)CCS(=O)(=O)c2cccs2)cc1	-1.4	.

Complete entries, looked up by structure. Screens in order: CDC25B-CDK2 inh | HIV TAR-Tat
`CCOC(=O)c1nnn2c1nc(N/N=C/c1ccc3c(c1)OCO3)c1ccccc12` is entered as -1.2 | .
`Cc1nn(-c2nc3ccc(Br)cc3s2)c2c1C(c1cc(F)cc(F)c1)CC(=O)N2` (stereo not drawn) is entered as . | 1.2
`Cc1ccc(S(=O)(=O)CCS(=O)(=O)c2cccs2)cc1` is entered as -1.4 | .
`CCOC(=O)c1sc(NC(=O)c2cc(C(C)C)on2)c(C(=O)OCC)c1C` is entered as 0.86 | .

More entries.
SMILES	CDC25B-CDK2 inh	HIV TAR-Tat
Cc1cccc(-n2ncc3c(Nc4ccccc4C)ncnc32)c1	.	3.3
O=C(Nc1cccc(Cl)c1)N1CCC(CN2CCc3ccccc3C2)CC1	.	1.7
O=S(=O)(Cc1ccc(F)cc1)Cc1noc(C2CCC2)n1	-1.1	.
NC(=O)C1(N2CCCCC2)CCN(C(=O)NC23CC4CC(CC(C4)C2)C3)CC1	0.73	.
COc1ccc(-c2nc(SCC(=O)Oc3ccccc3C)n3[nH]c(=O)cc3n2)cc1	.	1.6
CCn1c(Cc2ccccc2)nc2ccccc21	-2.5	1.2
COc1ccc(N2C(=O)C3CCCN3C2c2ccc(Cl)cc2)cc1 (stereo not drawn)	-0.73	0.63
COc1ccc(C2=NN3C(C2)c2cc(Cl)ccc2OC3c2cccnc2)cc1 (stereo not drawn)	-1.4	2.5
COc1ccc(CCNC(=O)c2cc3ccccc3oc2=O)cc1OC	0.7	.
Cc1ccc(CN2N=NC3C(=O)N(c4ccc(F)cc4)C(=O)C32)cc1 (stereo not drawn)	-1.1	0.01
COc1ccc(C2CC(=O)C3=C(C2)Nc2ccccc2NC3c2cccc3ccccc23)cc1OC (stereo not drawn)	-1.5	1.2
Cc1nc(-c2ccc(F)cc2)sc1CCNS(=O)(=O)c1ccc2c(c1)OCCO2	.	0.55
COc1ccc(NC(=O)C2=Cc3sc4c(c3CS2)CCCC4)c(OC)c1	.	0.14
CN(Cc1ccccc1)Cc1nc2c(c(=O)n(C)c(=O)n2C)n1Cc1ccccc1F	-0.93	-0.09
CC1CN2C(=O)Cc3c(S(=O)(=O)Nc4ccc(F)c(Cl)c4)ccc(c32)S1 (stereo not drawn)	.	-3.2
Cc1cc(C)cc(NC(=O)Nc2nc3ccc(S(C)(=O)=O)cc3s2)c1	-2.8	0.91
CCOc1ccc(OCC)c(Nc2c(OCC)c(=O)c2=O)c1	.	1.1
CCCCNC(=O)c1sc2ncn(CC(=O)N3CCCCC3C)c(=O)c2c1C (stereo not drawn)	-2.2	.
O=C(c1ccccc1)N1CCN=C1SCc1ccccc1	-1.6	.
CCOC(=O)C1=C(C)NC2=C(C(=O)c3ccccc32)C1c1ccc(OC(=O)c2ccccc2)cc1 (stereo not drawn)	12*	-2.9
Cc1nnc2ccc(N3CCC(C(=O)NCCCN4CCC(N5CCCCC5)CC4)CC3)nn12	.	1.2
CCCCN(C)C(=O)NC1(C(F)(F)F)Oc2ccc(Cl)cc2O1 (stereo not drawn)	0.36	.
Cn1cnc2cc(-c3noc(CNC(=O)C(c4ccccc4)c4ccccc4)n3)ccc21	.	0.47
CCCCCOc1ccc(C2(c3ccccc3)NC(=O)NC2=O)cc1 (stereo not drawn)	-1.7	0.42
Cc1nc2ccc(NC(=O)CSc3nnc(-c4cc5ccccc5o4)n3-c3ccccc3)cc2[nH]1	.	2.9

(list continues)
SMILES	CDC25B-CDK2 inh	HIV TAR-Tat
CCCNc1nc(NCc2cccc(Cl)c2)c2cnn(C)c2n1	.	1.4
CC[N+](C)(C)c1cccc(O)c1	-1.9	2.3
COCCn1c(CN2CCCC(C)C2)nc2c1c(=O)n(C)c(=O)n2C (stereo not drawn)	-0.76	3.3
CCOC(=O)C1(C)C=C(Nc2ccc(C(=O)O)cc2)C(=O)N1c1ccc(C(=O)O)cc1 (stereo not drawn)	-0.89	.
Cc1[nH]c2ccc(Br)cc2c(=O)c1CN1CC2(C)CC1CC(C)(C)C2 (stereo not drawn)	-1.3	.
Cc1cc(C)c(-c2c(NCc3cccs3)c(=O)c2=O)cc1C	.	0.2
CCS(=O)(=O)N1CCC2(CC1)OC(=O)C(C)=C2C(=O)N1CCN(c2cccc(Cl)c2)CC1	.	0.87
O=S(=O)(c1ccccc1)N1C2C=CC(C2)C1(C(F)(F)F)C(F)(F)Cl (stereo not drawn)	-0.66	.
CCCc1nn2c(=O)cc(COC(=O)COc3ccccc3Cl)nc2s1	.	0.78
CCCn1c2ccc(F)cc2c2nnc(SCCN(CC)CC)nc21	-0.69	-1.2
Nc1ccc(C(=O)Nc2nc3cc(N)ccc3s2)cc1	-4.8	4.2
CC(C)c1ccc(CN(C(=O)c2cc(-c3ccc4c(c3)OCCO4)on2)C2CCS(=O)(=O)C2)cc1 (stereo not drawn)	-1.6	1.9
CCOc1ccccc1-c1nn2c(CC)nnc2s1	1.8	0.42
Cc1cc(C)c(/C=C/c2onc(C)c2S(=O)(=O)N2CCCC(C(=O)Nc3cc(C)on3)C2)c(C)c1 (stereo not drawn)	.	0.35
CCc1ccc(S(=O)(=O)N(C(=O)c2cccnc2)c2ccc3oc(=O)sc3c2)cc1	-1.7	-0.43
O=C(CCc1nnc2ccc(NCc3ccco3)nn12)Nc1ccccn1	.	1.6
Cc1c(C(=O)N2CCN(c3ccc(F)cc3)CC2)sc2nc3n(c(=O)c12)CCCCC3	.	2.1
O=C(Nc1cc(-c2ccccc2)[nH]n1)c1cc2c(s1)-c1ccccc1OC2	-0.64	1.8
Cc1nc2c(c(C)c1CCC(=O)NCCCOC(C)C)c(=O)n(C)c(=O)n2C	-2.1	0.4
CCOC(=O)NCc1ccccc1	-1.1	.
CC1(C)Cc2c(sc3[nH]c(=O)n(CCc4ccccc4)c(=O)c23)CO1	-1.4	-0.48
COc1ccc(C)cc1-n1nnc(-c2nc(-c3ccc(Cl)cc3)no2)c1N	.	1.3
O=C(CSC(=S)NNc1ccccc1)c1cccc([N+](=O)[O-])c1	-0.74	.
CCOC(=O)/C(C#N)=C/N/S(C)=N/N=C/c1ccc(N(C)C)cc1 (stereo not drawn)	-1.9	.
O=C(COc1ccccc1)Nc1nn2c(-c3ccco3)nnc2s1	0.26	32*

Next section; the last 4 above are carried over.
SMILES	CDC25B-CDK2 inh	HIV TAR-Tat
COc1ccc(C)cc1-n1nnc(-c2nc(-c3ccc(Cl)cc3)no2)c1N	.	1.3
O=C(CSC(=S)NNc1ccccc1)c1cccc([N+](=O)[O-])c1	-0.74	.
CCOC(=O)/C(C#N)=C/N/S(C)=N/N=C/c1ccc(N(C)C)cc1 (stereo not drawn)	-1.9	.
O=C(COc1ccccc1)Nc1nn2c(-c3ccco3)nnc2s1	0.26	32*
C=CCC(Nc1cccc(C)c1)c1ccco1 (stereo not drawn)	-0.19	4
C=CCSc1nnc2c(n1)[nH]c1c(C)cccc12	-0.13	-0.36
Cn1c(=O)c2c(nc(N3CCOCC3)n2Cc2ccc(Cl)cc2)n(C)c1=O	-1.4	0.99
Cc1cc2n(n1)CCC(=O)N2CC(=O)N1CCCC1	.	0.13
CCn1nc(C)c(CNS(=O)(=O)c2ccccc2)c1C	.	-2.3
O=C(CSc1nnc(-c2ccncc2)o1)Nc1nc2ccccc2s1	-0.01	1.5
O=C(CN1C(=O)CCc2cc(Br)ccc21)Nc1nccs1	.	1.1
CCCn1c(C)ccc(-c2noc(CCCC(=O)NC(C)C)n2)c1=O	-0.82	-0.61
O=C1CC(c2cccc(Br)c2)c2cc3c(cc2N1)OCO3 (stereo not drawn)	-2.1	.
O=C(NCc1ccc2c(c1)OCO2)c1cnc2sccn2c1=O	-0.18	.
CCC(Oc1ccccc1F)C(=O)Oc1ccc(-n2cnnn2)cc1 (stereo not drawn)	-0.07	-0.86
Cc1ccc(OCC(=O)OCc2cc(=O)n3ccsc3n2)cc1C	.	0.8
COc1ccc(Cc2nnc3sc(-c4ccc(OC)cc4)nn23)cc1	-1.1	0.25
Oc1ccc(CN2CCN(c3cccc(Cl)c3)CC2)c2cccnc12	6.1	0.84
CCc1nn2c(=O)cc(CSc3ccccc3NC(C)=O)nc2s1	.	-0.3
COCCc1nn2c(=O)cc(COC(=O)c3cccc(Cl)c3)nc2s1	.	-0.06
Cc1nnc(NC(=O)CN2C(=O)COc3ccc(Cl)cc32)s1	-1.6	0.52
CCCCCCCCCCCCCCCC(=O)OC(CC(=O)O)C[N+](C)(C)C (stereo not drawn)	0.06	.
CCC(C)C1N=C2c3ccccc3N=C(SC(C)C(=O)Nc3ccc4c(c3)OCCO4)N2C1=O (stereo not drawn)	.	-0.25
NS(=O)(=O)c1ccc(NC2SC(=O)N(c3ccccc3)C2=O)cc1 (stereo not drawn)	1.4	1.6
Cc1cc(C)c2c(N)c(S(=O)(=O)Cc3ccccc3)sc2n1	-1.1	1.2
CCCNc1sc(S(=O)(=O)CC)nc1S(=O)(=O)c1ccc(C)cc1	-2.1	1.5
Cc1ccc(C)n1CCN1CCN(C(=O)C(C)(C)C)CC1	-1.9	-1.6
COC(=O)c1nnn(-c2nonc2N)c1CSc1ncccn1	-0.06	.
CCOc1ccc(N(C)C(=O)CCc2nnc3ccc(N4CCN(C)CC4)nn23)cc1	.	0.24

Remaining list, next part:
SMILES	CDC25B-CDK2 inh	HIV TAR-Tat
CCOc1ccc(-n2nnc(C(=O)OC)c2C(=O)OC)cc1	0.01	1.2
COc1ccc(-c2csc3ncnc(N4CCN(C)CC4)c23)cc1	.	1.2
COc1ccccc1NC(=O)Nc1nc2ccc(S(C)(=O)=O)cc2s1	-0.58	0.46
C=CCn1c(C(O)CCC)nc2ccccc21 (stereo not drawn)	0.31	1.4
Cc1ccc(C(=O)CSc2nc3ccccc3c(=O)[nH]2)cc1	-2	.
Cc1nc(N2CCCCC2)cc(N2CCN(C(=O)C3CCCCC3)CC2)n1	-0.99	1.1
Cc1c(C2CCN(S(=O)(=O)c3cn(C)cn3)CC2)c2ccccc2n1Cc1ccc(Cl)cc1	.	0.27
O=c1c(O)c(-c2ccc3c(c2)OCO3)oc2ccccc12	2.3	2.3
COC(=O)c1c(NC(=O)c2c(C)cc(C)cc2C)sc2c1C(C(=O)OC)CC2 (stereo not drawn)	-3.4	0.71
CCOC(=O)c1c(C)oc2ccc(NS(=O)(=O)c3cc(OC)ccc3OC)cc12	-0.49	3
CCN1C(=O)C2(/C(=C(/O)c3ccc(OC)cc3)C(=O)C(=O)N2CCOC)c2ccccc21 (stereo not drawn)	-0.12	0.02
O=C(CN1C(=O)COc2ccc(S(=O)(=O)N3CCCC3)cc21)N1CCCC1	0.31	-1.3
COc1cccc(-c2ccc(-c3noc(-c4cccs4)n3)c(OC)n2)c1	-0.05	-0.3
